Mtb H37Rv: Confirmatory growth inhibition assay against Mycobacterium tuberculosis H37Rv, potency (AID 1949); 1.6% of 100,000 active; most inactive calls were filed without a number and no value below 0 was filed; inhibition, % at 10 µg/mL, or IC50 in µg/mL where a hit was titrated;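 active = confirmed in a dose series; inconclusive = about 50% or more but not retested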;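 also: bacteria grown 7 days with compound before Alamar blue readout; 0% = untreated bacteria and 100% = reference antibiotic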
* = called active by the depositor; i = inactive; ? = inconclusive.

Molecule	Mtb H37Rv
Cc1cccc(-c2nnc(SCC(=O)NCCc3ccccc3)o2)c1	0.25µg/mL*
CCC(=O)N1CCN(c2ccccc2NC(=S)NC(=O)c2cc3ccccc3cc2OC)CC1	i
O=S(=O)(c1cccs1)N1CCCC1	i
CC1(C)CC2CC(C)(CN2C(=S)Nc2ccc3nsnc3c2)C1 (stereo not given)	i
COc1cc(OC)c(C(=O)N2CCN(c3ccccc3)CC2)cc1OC	i
CC1CCN(C(=O)c2cccc(S(=O)(=O)N3CCCCC3)c2)CC1	i
O=C(NCC1CCN(C(=O)c2ccc3c(c2)OCO3)CC1)c1ccc2c(c1)OCO2	i
Cc1ccc(SC(C)C(=O)NC2CC2)cc1 (stereo not given)	2%
CNc1cc(N2CCN(C(=O)c3cccc(Cl)c3)CC2)ccc1[N+](=O)[O-]	i
Clc1ccc(-c2nc(C3CCCCC3)no2)cc1	i
O=C(COc1ccccc1)Nc1scc2c1c(=O)oc1ccccc12	i
O=C(Nc1ccc(NC(=O)C2CC2)cc1)c1ccco1	i
O=C(CN(Cc1ccccc1)S(=O)(=O)c1ccc(F)cc1)Nc1ccc(Cl)c(Cl)c1	0%
O=C(O)CCCC(=O)NCc1ccc(Cl)c(Cl)c1	i
COc1cc2ccccc2cc1C(=O)Nc1ccccc1OC(F)F	i
CC1=C(C(=O)Nc2cccc(Cl)c2)C(c2c(Cl)cccc2Cl)NC(=S)N1 (stereo not given)	i
Cc1c(C)n(C(=O)CSc2nc3ccccc3s2)c2ccccc12	6%
Cc1ccc(S(=O)(=O)/N=C(/c2ccc(F)cc2)N(C)C)cc1	3%
O=C(NCc1cccnc1)C(Cl)(Cl)Cl	i
CC1CC(C)CN(CCOc2ccccc2I)C1 (stereo not given)	1%
CCC(=O)NC(=S)Nc1cccc(Cl)c1	2%
COC(=O)c1cc(C)sc1NC(=S)Nc1cnn(C)c1C(N)=O	i
CC(=O)c1ccc2c3c(cccc13)C(=O)N(c1cccc(C)c1C)C2=O	4%
COc1ccc(NC(=O)CN2CCN(c3cc(Cl)ccc3C)CC2)cc1	12%
COC(=O)c1cc(NC(=S)N2CCN(c3ccccn3)CC2)cc(C(=O)OC)c1	i
CCOC(=O)c1sc(NC(=O)c2cc(-c3ccccc3Cl)nc3ccccc23)nc1C	1%
N#Cc1cccc(NC(=O)CC2CCCCC2)c1	0%
O=[N+]([O-])c1ccc(S(=O)(=O)/C=C/C=C/N2CCCCC2)cc1	0%
Cc1cc(C)c(OCCCN2CCCCC2)c(C)c1	i
CC(=O)c1cccc(NC(=S)NCCc2ccc(Cl)cc2)c1	i

Reprinted from the part before: four compounds, followed by the next part.
Molecule	Mtb H37Rv
N#Cc1cccc(NC(=O)CC2CCCCC2)c1	0%
O=[N+]([O-])c1ccc(S(=O)(=O)/C=C/C=C/N2CCCCC2)cc1	0%
Cc1cc(C)c(OCCCN2CCCCC2)c(C)c1	i
CC(=O)c1cccc(NC(=S)NCCc2ccc(Cl)cc2)c1	i
O=C(O)CCSc1nc(-c2ccccc2)cc(=O)[nH]1	i
COc1ccc(C(=O)NC(=S)Nc2cccc(Cl)c2C)cc1I	0%
CCOc1cc(/C=C2\C(=N)N3N=CSC3=NC2=O)ccc1OC(=O)c1cccs1	3%
CC(C)C(=O)Nc1cccc(NC(=S)NC(=O)c2cc3ccccc3o2)c1	i
Cc1ccc(-c2nn(CC(=O)N3CCN(Cc4ccccc4)CC3)c(=O)c3ccccc23)cc1	2%
O=C(Nc1ccc(CN2CCOCC2)cc1)c1ccc(Br)o1	i
Cc1ccc(F)c(NC(=O)CN2C(=O)CSc3ccccc32)c1	i
COc1ccc(Cl)cc1-n1c(-c2cccc(C)c2)nc2ccccc2c1=O	i
O=C(O)CC(Cc1ccccc1)C(=O)Nc1ccccc1I (stereo not given)	2%
Cc1occc1C(=O)Nc1cc(C(C)(C)C)on1	5%
c1ccc(-c2cc3c(ccc4[nH]onc43)n2)cc1	27%
COc1nc(-c2ccccc2)cc(C(F)(F)F)n1	2%
Cc1cccc(OCCn2c(NC(=O)c3ccccc3Cl)nc3ccccc32)c1	?
CC(C)C(=O)N1CCN(c2ccc([N+](=O)[O-])c(N3CCOCC3)c2)CC1	i
O=C(c1cc2ccccc2oc1=O)N1CCCCC1	i
Cc1ccc(N2CCN(C(=O)c3ccc(C(C)(C)C)cc3)CC2)cc1C	i
COc1ccc(CCNc2cc(=O)[nH]c(N)n2)cc1	15%
C=CCNC(=O)c1ccccc1NC(=O)Nc1ccccc1	i
CSc1ccc(CN(C)CCc2ccccn2)cc1	i
CCc1ccccc1NC(=O)CSc1nc2ccccc2c(=O)n1CCc1ccccc1	i
CCOc1ccc2nc(SC(c3ccccc3)c3ccccc3)sc2c1	i
O=C(Nc1cccc(F)c1)c1cccc2c(Br)cccc12	i
COc1ccc(NC(=O)c2c(F)c(F)c(F)c(F)c2F)c(OC)c1	43%
CCN(CC)c1c([N+](=O)[O-])ccc2nonc12	i
CCOc1cc(C)cc2oc(=O)cc(-c3ccccc3)c12	6%
CCc1cc(C(=O)NCc2ccccc2)cs1	i
O=C(C1=C(O)C(=O)N(CCCn2ccnc2)C1c1cccnc1)c1ccco1 (stereo not given)	i
COC(=O)c1sccc1NC(=O)c1ccc(OCC(C)C)cc1	i
O=C(Oc1ccc([N+](=O)[O-])cc1)N1CCCCC1	9%
CCc1ccccc1NC(=O)CN(c1ccc(C)cc1C)S(C)(=O)=O	i

Additional structures.
Molecule	Mtb H37Rv
CCN(CC(=O)NCc1ccccn1)S(=O)(=O)c1ccc(C)cc1	i
CCCn1nnc(NC(=O)COc2ccc(C)cc2C)n1	i
CN(c1cccc(NS(=O)(=O)c2cccs2)c1)S(C)(=O)=O	i
CC(C)Oc1ccccc1NC(=O)CSc1nc2ccccc2n1C	i
O=C(Nc1nc(-c2ccc(S(=O)(=O)N3CCOCC3)cc2)cs1)c1sc2cccc(Cl)c2c1Cl	i
CC(=O)c1ccc(NC(=O)CN2C(=O)C3C4c5ccccc5C(c5ccccc54)C3C2=O)cc1 (stereo not given)	?
CCc1c(C)sc(NC(=O)c2ccncc2)c1C#N	0%
S=c1[nH]nc(-c2ccccc2)n1CCc1ccccc1	i
CCCOc1ccc(C2C(C(=O)c3ccc(C)o3)=C(O)C(=O)N2Cc2ccco2)cc1 (stereo not given)	i
CC(=O)Nc1nnc(CCCCn2c(-c3nonc3NC(C)=O)nc3ccccc32)s1	i
CCCOc1ccc(OCCCNC(C)CC)cc1 (stereo not given)	i
CN1CCC(NC(=O)c2cccs2)CC1	i
Cc1ccc(S(=O)(=O)N(C)CC(=O)Nc2ccccc2C)cc1	i
CCC(=O)NC(=S)Nc1ccc(I)cc1C	i
Cc1ccc(SCC(=O)NCCN(C)C)cc1	1%
COc1ccc2c(c1)C(C)CC(C)(C)N2C(=O)CSc1ncccn1 (stereo not given)	1%
Cc1ccccc1-c1nc2ccccc2o1	i
O=C(CSc1nc2ccccc2[nH]1)Nc1ccc(Br)cc1Cl	i
CCOC(=O)c1ccc(NC(=S)N2CC(C)OC(C)C2)cc1 (stereo not given)	i
CCOc1ccc(N2C(=O)CC(N3CCc4ccccc43)C2=O)cc1 (stereo not given)	i
Cc1cc(S(=O)(=O)N(C)C2CCCCC2)ccc1F	0%
COc1ccc(Br)cc1C(=O)Nc1ccccc1N1CCOCC1	22%
Cc1ccc(NC(=O)C(=O)NC(C)C2COc3ccccc3O2)cc1 (stereo not given)	0%
CNC(=O)C1=C(C)NC(=S)NC1c1ccc(F)cc1 (stereo not given)	i
Cc1c(C(=O)Nc2ccccc2)sc(N)c1C(N)=O	i
O=C(Nc1ccn(Cc2ccccc2F)n1)Nc1ccc(F)cc1F	i
CCCCc1ccc(S(=O)(=O)Nc2cc(C)on2)cc1	i
CCSc1ccccc1C(=O)Nc1ccccc1C(=O)NCc1ccccc1	4%
CC1(C)CC2CC(C)(CN2C(=O)c2cc3ncc(Br)cn3n2)C1 (stereo not given)	i
OC(COc1ccc(Br)cc1)CN1CCN(Cc2ccccc2)CC1 (stereo not given)	2%

Seven records drawn at random from the list so far, as already listed:
Molecule	Mtb H37Rv
Cc1ccc(S(=O)(=O)N(C)CC(=O)Nc2ccccc2C)cc1	i
Cc1ccccc1-c1nc2ccccc2o1	i
S=c1[nH]nc(-c2ccccc2)n1CCc1ccccc1	i
Cc1ccc(NC(=O)C(=O)NC(C)C2COc3ccccc3O2)cc1 (stereo not given)	0%
CCOC(=O)c1ccc(NC(=S)N2CC(C)OC(C)C2)cc1 (stereo not given)	i
CCCCc1ccc(S(=O)(=O)Nc2cc(C)on2)cc1	i
CCCOc1ccc(OCCCNC(C)CC)cc1 (stereo not given)	i

Remaining list, next part:
Molecule	Mtb H37Rv
C=CCNC(=S)N1CCN(c2cccc(C(F)(F)F)c2)CC1	0%
COc1ccc(-c2csc(N)c2C(=O)OC(C)C)cc1OC	3%
Cc1cc(OCC(N)=O)c(C)cc1Br	i
CC1(C(=O)NNC(=S)Nc2ccc3c(c2)OCO3)CC1(Cl)Cl (stereo not given)	i
CC1(C(=O)c2ccccc2)C2c3c(ccc4ccccc34)OC(=O)C21C(=O)c1ccco1 (stereo not given)	5%
COc1ccc(OC)c(NC(=O)COc2cccc3ccccc23)c1	i
CC(C)(C)NC/C=C(\Sc1nnnn1-c1ccccc1)c1ccccc1	i
O=C(CSc1ccc(F)cc1)NC1CCCCC1	i
CCc1nnc(NC(=O)CCCOc2cc(C)ccc2C)s1	4%
Cc1nc(SCC#N)c2c3c(sc2n1)CCCC3	i
CCOC(=O)c1c(NC(=O)c2ccc(F)cc2)sc(C(=O)Nc2cccc(OC)c2)c1C	i
COc1ccc(OC)c(NC(=O)COc2ccc(C(=O)NCc3ccccc3)cc2)c1	i
c1csc(CNc2nc3ccccc3n2CCN2CCOCC2)c1	i
N#Cc1c(SCc2ccccn2)nc2c(c1-c1cccs1)CCCC2	i
CCOC(=O)c1c(C)n(C)c2ccc(OC(=O)OC)cc12	i
CC1CCN(C(=O)CSc2ncnc3sc4c(c23)CCCC4)CC1	20%
COc1cc(OC)cc(C(=O)N2CCN(Cc3ccccc3Cl)CC2)c1	i
O=S(=O)(Nc1cc(SCc2ccccc2)c(O)c2ccccc12)c1ccc(F)cc1	5%
COc1cccc(OCC(=O)NNC(=S)Nc2cccc(C(F)(F)F)c2)c1	1%
COC(=O)c1ccc(NC(=O)CSc2nnnn2-c2ccccc2OC)cc1	i
CCNC(=O)c1c(NC(=O)c2ccccc2Br)sc2c1CCCC2	i
CCCCC(=O)Nc1ccc(F)cc1F	i
CC(=O)c1ccc2c(c1)Cc1cc(C(C)=O)ccc1-2	3%
COc1ccc(Cc2nc(-c3ccc(Cl)cc3)no2)cc1OC	i
OC1/C(=C/c2cccs2)N2CCC1CC2 (stereo not given)	2%
O=C(CSc1nnnn1C1CCCCC1)NC(c1ccccc1)c1ccccc1	4%
CSCCC(NC(C)=O)C(=O)OCC(=O)N(c1ccccc1)c1ccccc1 (stereo not given)	i
O=C(COc1ccc(Cl)cc1)NN1CCOCC1	i
CC(=O)c1c(N2CCN(c3ccccn3)CC2)nc(=S)n(-c2ccccc2)c1C	i
CCCCc1nc(NCCO)c(C#N)c2c1CCCC2	4%

Next part.
Molecule	Mtb H37Rv
Cc1ccsc1/C=C(\C#N)c1nc2ccccc2[nH]1	9%
CC(=O)Nc1ccc(NC(=O)CSc2ccc(C)cc2)cc1	i
C/C(=N/N=C1\NC(=O)C(Cc2ccc(F)cc2)S1)c1ccc(Cl)cc1 (stereo not given)	1.5µg/mL*
O=c1oc2c(CN3CCN(CCO)CC3)c(O)ccc2cc1-c1nc2ccccc2s1	34%
Cc1ccnc(Nc2nc(-c3ccc(O)c(O)c3)cs2)c1	6%
N#Cc1c(-c2ccc(Cl)cc2)cc(-c2cccs2)nc1SCC(N)=O	1%
Cc1ccc(NC(=S)NCCCn2ccnc2)cc1	i
CCCCNS(=O)(=O)c1ccc(N)cc1	i
CC(C)c1ccc(CNc2c([N+](=O)[O-])c(=O)oc3ccccc23)cc1	i
CCOc1ccccc1NC(=O)c1ccc(Br)o1	i
COc1ccc(NC(=O)c2ccc(C#CC(C)(C)O)cc2)cc1	i
N#CC1=C(N)SC(N)=C(C#N)C1c1ccoc1	i
Cc1c(Cl)cccc1N(CC(=O)Nc1ccc(Oc2ccccc2)cc1)S(C)(=O)=O	18%
C=CCn1c(SCC(=O)Nc2cc(Cl)ccc2Cl)nc2ccccc2c1=O	4%
CCn1c(C)c(C(C)=O)c(N2CCN(C(c3ccccc3)c3ccccc3)CC2)nc1=S	i
COc1ccccc1N1C(=O)CC(Sc2nc(-c3ccccc3)c3cc(Cl)ccc3n2)C1=O (stereo not given)	i
C=CCOc1cccc(C(=O)NC2CCCC2)c1	i
CC(=O)Nc1ccccc1NC(=O)COc1ccc(Br)cc1C	i
CC(C)(O)C#CC(O)(c1ccc(Cl)cc1)c1cccc(Cl)c1 (stereo not given)	6%
COC(=O)c1cc(NC(=O)C2CC2)cc(C(=O)OC)c1	i
COc1ccccc1N1CCN(C2CCN(C(=O)CC(C)C)CC2)CC1	i
Cc1ccc(CC2CC(=O)N(c3cc(C)on3)C2=O)cc1 (stereo not given)	i
O=C(c1ccc(CSc2ccccc2)cc1)N1CCN(c2ccccc2)CC1	i
CCc1cccc(CC)c1NC(=O)C(Sc1ccccc1)c1ccccc1 (stereo not given)	i
COc1cc(S(=O)(=O)NC(C)c2ccccc2)c(OC)cc1Cl (stereo not given)	i
CCc1ccc(Oc2c(CC(=O)O)oc3cc(O)c(CC)cc3c2=O)cc1	i

Screens (PubChem)

An excerpt (hit frequency here may not be typical).
